Sa ugtP lethal: growth inhibition of S. aureus ugtP deletion strain. S. aureus RN4220 ugtP deletion, OD600 growth, 16 h; some inactives read as strong as hits. growth inhibition, % (concentration not given with the values). 330,000 compounds, 0.54% hits. AID 1259309;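 active = z-score under -3 and OD600 up to 0.15 on both plates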;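 also: plate controls were untreated wells for no effect and antibiotic for full effect; wells of about 80 µL received 100 nL stock; the first replicate is given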
BJeLR lethal: kills HRASV12-expressing BJeLR cells; BJeLR (HRASV12) viability, CellTiter-Glo ATP luminescence, 48 h; reference of the scale not given here; inhibition, % (no concentration beside the values); 300,000 compounds, 0.17% hits; AID 1554;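 active = replicate mean above 50%; inconclusive = above 50% but judged a plate artefact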;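 also: 50 nL library stock added to about 25 µL; numbers are from one replicate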
PrP UTR inh: suppresses PrP 5' UTR mRNA reporter expression. cell-based PrP 5' UTR mRNA reporter, plate reader. inhibition, % (no concentration beside the values). 340,000 compounds, 0.35% hits. AID 488862;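 active = every replicate at 50% or more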;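 also: 0 = median of the neutral control wells; tested in H4 reporter cells; numbers are from one replicate; inactives centre near -14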
Autofluor counter: counter-screen for toxin protease inhibitors: compound fluorescence. compound autofluorescence counterscreen, microsphere flow cytometry; active compounds read high. 360,000 compounds, 3.1% hits. fluorescence intensity (no concentration beside the values);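 active = at least 3 SD above the mean of all compounds, about 16000 in these data; inconclusive = too few beads counted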;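 also: 100 nL of 1 mM stock went into each well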
RN4220 kill: S. aureus RN4220 growth inhibition; OD600, 16 h; inhibition, % (test concentration not listed); 330,000 compounds, 0.33% hits; AID 1259311;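 active = z-score of -3 or lower and OD600 up to 0.18 on both plates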;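 also: plate controls were untreated cells for no effect and reference antibiotic for full effect; stock transfer was 100 nL into about 80 µL; one replicate is shown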
Mtb hypoxia inh: reduces hypoxia-regulated biosensor signal in M. tuberculosis; M. tuberculosis hypoxia-regulated fluorescent reporter, fluorescence; fluorescence inhibition, % (no concentration beside the values); 300,000 compounds, 0.1% hits; AID 1159583;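 active = 35 to 45% if threefold the growth effect, above 45% if 1.5-fold the growth effect; inactive = the rest, general growth blockers included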;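 also: wells of about 50 µL received 100 nL stock; 0% = vehicle wells and 100% = reference inhibitor wells; whole bacteria with a GFP reporter of the hypoxia response; strong numbers were not always called active; many hits fall short of the cut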
Mtb hypoxia inh growth: also measured in Mtb hypoxia inh; calls as there; growth inhibition, %; measured here: M. tuberculosis growth (absorbance);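 0% = vehicle and 100% = reference antibiotic; read after six days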
Active calls of the source: *; ? = inconclusive; / = no result given; & = joins results of further samples.

SMILES	Sa ugtP lethal	BJeLR lethal	PrP UTR inh	Autofluor counter	RN4220 kill	Mtb hypoxia inh	Mtb hypoxia inh growth
COc1cccc(-c2ccc(-c3noc(-c4ccccc4F)n3)c(OC)n2)c1	-9	1	-27	9542	3.9	2	6
O=C(NCC1CCCCC1)c1cc(S(=O)(=O)N2CCCCC2)ccc1N1CCOCC1	2	-1	-18	4363	1.8	10	4
Cc1cc(C)c2c3c(c(-c4ccccc4)n2n1)c(=O)n(C)c(=O)n3C	3	/	-18	3184	3.8	11	2
Cc1nnc(NC(=O)C2CCN(c3cnccn3)CC2)s1	-7	2	-17	22414*	-6.2	-4	5
COc1ccc(Cl)cc1NC(=O)C1CCCN(c2ncnc3c2nc2n3CCCCC2)C1 (stereo not drawn)	-14	10	-20	5505	5.7	2	3
C=C(C)CN(CC)C(=O)CSc1nc2ncc(Cl)cc2[nH]1	4	-3	-7	4514	0.7	/	/
COc1ccc(C(C)=O)cc1COc1ccccc1[N+](=O)[O-]	-1	8	-19	3161	5.4	14	12
N#CC(OC1OC(COC2OC(CO)C(O)C(O)C2O)C(O)C(O)C1O)c1ccccc1 (stereo not drawn)	-1	/	/	/	-0.8	12	12
COP(=O)(NS(=O)(=O)c1ccccc1)OC	-1	5	3	4071	7.9	8	9
NC(=O)c1ccc(NC(=O)COC(=O)c2ccc3ccccc3n2)cc1	0	/	-16	3503	2.8	7	12
N#Cc1cc2c(nc1SCc1ccccc1)CCC2	7	-7	-36	6546	1.9	7	3
COc1cc(Cl)c(C)cc1NC(=O)c1cccc(OC)c1OC	5	-9	-54	3441	-13	-3	7
COC(=O)c1cccc(S(=O)(=O)N2CCC(NC(=O)NC34CC5CC(CC(C5)C3)C4)CC2)c1	13	10	-54	8813	5.2	-4	-4
COc1cc(C=NNC(=O)CCc2ccccc2)ccc1O	6	/	/	/	-2.1	4	-5
Cc1cc(C(C)(C)C)cc(C)c1CCNC(=O)c1c(C)noc1C	-5	/	-31	5915	5.3	0	7
Cc1ccc(CNC(=O)CN(C)S(=O)(=O)c2ccc(F)cc2)cc1	5	-11	-6	3974	-0.4	-2	4
CCOc1ccc(Cl)cc1S(=O)(=O)NCc1ccccn1	0	-4	-30	3514	4.4	8	0
CC(=O)OC(CC(=O)O)C[N+](C)(C)C (stereo not drawn)	-4&-4	-8	2	5809	0.1&6.1	2&6	-3&-2
Oc1c(Cl)cc(Cl)cc1CNn1cnnc1	2	3	-3	4177	3.1	5	-11
Cc1ccc(NC(=O)CSc2nc(=O)n(CCCN(C)C)c3c2CCC3)c(C)c1	8	18	-17	?	0.4	1	-3

Single entries from the list.
COc1cc(Cl)c(C)cc1NC(=O)c1cccc(OC)c1OC in Autofluor counter has 3441
Cc1ccc(NC(=O)CSc2nc(=O)n(CCCN(C)C)c3c2CCC3)c(C)c1 in Mtb hypoxia inh growth has -3

Next section:
SMILES	Sa ugtP lethal	BJeLR lethal	PrP UTR inh	Autofluor counter	RN4220 kill	Mtb hypoxia inh	Mtb hypoxia inh growth
COc1ccc(C(CNS(=O)(=O)c2ccc(NC(C)=O)c(OC)c2)N2CCCCC2)cc1 (stereo not drawn)	-3	/	0	3717	2.8	-1	-3
COc1ccc(OC)c(NC(=O)CN(C)CCOc2ccc(Br)cc2)c1	1	-9	6	4522	3.6	9	-4
COC(=O)c1ccc(N2CCN(S(=O)(=O)c3ccccc3)CC2)c([N+](=O)[O-])c1	-5	-10	-9	3974	2.4	-2	11
Cc1cc(C)n(-c2nc(SCCN(C)C)c3c4c(sc3n2)CCCC4)n1	-37	8	-4	17751*	16	20	30
Cc1nnc(NC(=O)c2ccc(-c3ccc(Cl)cc3)o2)s1	3	7	-19	/	3.1	-3	-8
COc1ccc(C(O)(CCN2CCCCC2)C2CCCCC2)cc1 (stereo not drawn)	16	1	-21	3920	-0.5	14	8
CC1(C(=O)Nc2c(F)c(F)c(F)c(F)c2F)CC1(Br)Br (stereo not drawn)	4	-6	-16	4037	4.5	4	16
COCc1cc(C)nc(OCC(=O)NN=Cc2ccc(OC)c(OC)c2)c1C#N	9	/	/	/	2.8	-4	6
O=C(CCCNC(=O)c1ccc(Cl)cc1)Nc1ccccc1F	5	-11	-5	4033	0.7	-13	1
Cc1n[nH]c(=O)c2c(NC(=O)COC(=O)c3cccc(OC(F)F)c3)oc(C)c12	0	3	6	/	2.2	0	-6
Cc1c(C(=O)c2cccc([N+](=O)[O-])c2)c2ccccn2c1CCC#N	-1	-4	-18	8511	3.4	2	3
CCc1cc2c(=O)c(-c3ccc4c(c3)OCCO4)coc2c(CN2CCCCC2C)c1O (stereo not drawn)	-4	-2	-19	3452	3.7	12	9
O=C(NCc1ccncc1)c1cccc(S(=O)(=O)Nc2ccc(F)cc2)c1	1	/	-17	4373	2.6	3	-2
CCOC(=O)C1CCN(C(=O)CSc2cc(=O)n(C)c3ccccc23)CC1	2	-6	-28	9415	3.0	6	5
CCOC(=O)N1CCN(S(=O)(=O)c2ccc(Br)s2)CC1	3	-3	1	4797	1.8	/	/
CC1=C(C(=O)Nc2cccc(C(=O)NCc3ccccc3C)c2)SCCO1	-3	6	-5	4777	0.6	2	10
CCN(CC)S(=O)(=O)c1cc(C(=O)Nc2cc(S(=O)(=O)N3CCOCC3)ccc2N2CCCC2)ccc1F	9	/	-16	6553	2.2	-2	3
O=C(CCl)Nc1cc(-c2ccccc2)nn1-c1ccccc1	-15	0	-8	9485	-0.3	/	/
COCCN(C(=O)COC(=O)Cc1cccc2ccccc12)c1c(N)n(Cc2ccccc2)c(=O)[nH]c1=O	4	-16	0	5739	-1.1	3	-2
O=C(COC(=O)CCCN1C(=O)c2cccc3cccc(c23)C1=O)NC1CCS(=O)(=O)C1 (stereo not drawn)	4	/	-23	6442	3.3	-1	0
Cc1cc2oc(=O)cc(-c3ccccc3)c2c(C)c1-c1ccc(C#N)cc1	30	/	-12	4042	3.7	/	/
COC(=O)NNC(=O)c1ccc(C)c(Br)c1	-1	11	-14	2482	4.0	4	5
COc1ccc(C(c2nnnn2C2CCCC2)N2CCN(c3ccccc3)CC2)cc1 (stereo not drawn)	-2	11	-6	3432	-3.0	/	/
Cn1c(N)c(C(C[N+](=O)[O-])c2ccccc2Cl)c(=O)n(C)c1=O (stereo not drawn)	-5	7	4	3804	9.1	19	19
CCOC(=O)/C(C#N)=C/c1cc(C)n(-c2ccc(C)cc2)c1C	-4	-3	-58	2341	-9.9	5	-4
O=C(NCCNc1cc(Cl)ccc1[N+](=O)[O-])c1ccco1	-7	-9	-26	2552	1.2	2	7
Cn1c(SCc2ccccc2C#N)nnc1-c1ccncc1	9	-9	6	3518	4.8	3	17
O=C(OCCN1C(=O)c2ccccc2C1=O)c1cc(S(=O)(=O)N2CCOCC2)ccc1Cl	3	/	-4	2341	4.7	/	/
CC(=O)N1CCOc2ccc(S(=O)(=O)Nc3ncccc3C)cc21	5	1	-16	4803	3.0	-2	3
C/C(=N\NC(=O)c1ccc([N+](=O)[O-])cc1)c1cc2ccccc2oc1=O	/	6	-13	7371	/	/	/
O=c1c(Cl)c(NN=Cc2ccc(Cl)cc2)cnn1-c1ccccc1	-31	/	/	/	-1.4	-8	-1
COc1ccc2c(c1)CCc1c(C(=O)N3CC4(C)CC3CC(C)(C)C4)noc1-2 (stereo not drawn)	-8	6	11	11279	-5.2	-3	-7
CC1CCCCC1NC(=O)CCS(=O)(=O)c1ccc(Cl)cc1 (stereo not drawn)	1	/	0	6991	2.2	7	6
COc1cccc(C(=O)NOCc2ccccc2)c1OC	2	/	-60	3916	5.2	11	1
COc1ccccc1CNC(=O)COC(=O)c1ccncc1	2	/	-15	6998	2.1	-4	1
Cn1c(CCc2ccccc2)n[nH]c1=S	4	4	-6	3275	5.5	17	6
CC1c2nc3ccccc3n2C(CC(=O)NCCCN2CCOCC2)C(=O)N1Cc1ccccc1 (stereo not drawn)	17	-4	-21	2522	2.1	14	12
COc1ccc(CCNC(=O)C(=O)NCC2OCCN2S(=O)(=O)c2ccccc2)cc1 (stereo not drawn)	9	-10	-7	5951	11	-7	7
COC(=O)/C(=C\c1ccc2c(c1)c1ccccc1n2C)NC(=O)c1ccccc1	2	5	-12	9893	3.9	-5	-9
CCOc1cc(NC(=S)NCC2CCCO2)c(OCC)cc1NC(=O)c1ccc(C)cc1 (stereo not drawn)	1	-3	-23	2404	2.7	-2	6
CCOC(=O)/C(=N/Nc1ccc(Cl)cc1)Sc1nnnn1-c1ccc(C)cc1	/	4	-23	2860	/	/	/
FC(F)(F)Oc1ccc(Nc2nc3ccccc3o2)cc1	9	5	-107	2757	4.6	4	7
CC1CCN(C(=S)NC(=O)C2CCCCC2)CC1	7	-2	-17	4676	-2.4	/	/
CC1(c2nnc(-c3ccc(F)cc3)o2)CC(c2ccc(Cl)cc2)=NO1 (stereo not drawn)	9	4	-23	3810	-1.8	9	11
CCC(C)C(=O)OCC1(c2ccc(C)cc2OC(=O)C(C)C)CO1 (stereo not drawn)	/	53*	2	5747	/	/	/
CCN1C(=O)C(O)(CC(=O)c2ccc(-n3cccc3)cc2)c2ccccc21 (stereo not drawn)	5	0	-19	5575	4.6	16	11
N#CC(C#N)=Cc1ccc(-c2ccc(S(=O)(=O)N=C(N)N)cc2)o1	/	-6	-6	2145	/	/	/
Cn1c2ccc(F)cc2c2ncn(Cc3ccccn3)c(=O)c21	10	-10	-6	6207	3.3	2	8

Looked up by compound from above:
SMILES	Sa ugtP lethal	BJeLR lethal	PrP UTR inh	Autofluor counter	RN4220 kill	Mtb hypoxia inh	Mtb hypoxia inh growth
CCC(C)C(=O)OCC1(c2ccc(C)cc2OC(=O)C(C)C)CO1 (stereo not drawn)	/	53*	2	5747	/	/	/
CCN1C(=O)C(O)(CC(=O)c2ccc(-n3cccc3)cc2)c2ccccc21 (stereo not drawn)	5	0	-19	5575	4.6	16	11

In the list so far, these have a Cl atom:
SMILES	Sa ugtP lethal	BJeLR lethal	PrP UTR inh	Autofluor counter	RN4220 kill	Mtb hypoxia inh	Mtb hypoxia inh growth
COc1ccc(Cl)cc1NC(=O)C1CCCN(c2ncnc3c2nc2n3CCCCC2)C1 (stereo not drawn)	-14	10	-20	5505	5.7	2	3
C=C(C)CN(CC)C(=O)CSc1nc2ncc(Cl)cc2[nH]1	4	-3	-7	4514	0.7	/	/
COc1cc(Cl)c(C)cc1NC(=O)c1cccc(OC)c1OC	5	-9	-54	3441	-13	-3	7
CCOc1ccc(Cl)cc1S(=O)(=O)NCc1ccccn1	0	-4	-30	3514	4.4	8	0
Oc1c(Cl)cc(Cl)cc1CNn1cnnc1	2	3	-3	4177	3.1	5	-11
Cc1nnc(NC(=O)c2ccc(-c3ccc(Cl)cc3)o2)s1	3	7	-19	/	3.1	-3	-8
O=C(CCCNC(=O)c1ccc(Cl)cc1)Nc1ccccc1F	5	-11	-5	4033	0.7	-13	1
O=C(CCl)Nc1cc(-c2ccccc2)nn1-c1ccccc1	-15	0	-8	9485	-0.3	/	/
Cn1c(N)c(C(C[N+](=O)[O-])c2ccccc2Cl)c(=O)n(C)c1=O (stereo not drawn)	-5	7	4	3804	9.1	19	19
O=C(NCCNc1cc(Cl)ccc1[N+](=O)[O-])c1ccco1	-7	-9	-26	2552	1.2	2	7
O=C(OCCN1C(=O)c2ccccc2C1=O)c1cc(S(=O)(=O)N2CCOCC2)ccc1Cl	3	/	-4	2341	4.7	/	/
O=c1c(Cl)c(NN=Cc2ccc(Cl)cc2)cnn1-c1ccccc1	-31	/	/	/	-1.4	-8	-1
CC1CCCCC1NC(=O)CCS(=O)(=O)c1ccc(Cl)cc1 (stereo not drawn)	1	/	0	6991	2.2	7	6
CCOC(=O)/C(=N/Nc1ccc(Cl)cc1)Sc1nnnn1-c1ccc(C)cc1	/	4	-23	2860	/	/	/
CC1(c2nnc(-c3ccc(F)cc3)o2)CC(c2ccc(Cl)cc2)=NO1 (stereo not drawn)	9	4	-23	3810	-1.8	9	11

Screening data (PubChem BioAssay)
